UCH37 inh – inhibitors of human deubiquitinating enzyme UCH37; purified proteasome/UCH37, Ub-AMC cleavage fluorescence; inhibition, % (test concentration not listed); hit rate 0.33% among 330,000;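 active means mean of two replicates above 20%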;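 further: 0% = compound-free wells with enzyme and 100% = wells lacking proteasome; stock transfer was 100 nL into about 20 µL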
Target sequence (Q9Y5K5 whole entry, looked up): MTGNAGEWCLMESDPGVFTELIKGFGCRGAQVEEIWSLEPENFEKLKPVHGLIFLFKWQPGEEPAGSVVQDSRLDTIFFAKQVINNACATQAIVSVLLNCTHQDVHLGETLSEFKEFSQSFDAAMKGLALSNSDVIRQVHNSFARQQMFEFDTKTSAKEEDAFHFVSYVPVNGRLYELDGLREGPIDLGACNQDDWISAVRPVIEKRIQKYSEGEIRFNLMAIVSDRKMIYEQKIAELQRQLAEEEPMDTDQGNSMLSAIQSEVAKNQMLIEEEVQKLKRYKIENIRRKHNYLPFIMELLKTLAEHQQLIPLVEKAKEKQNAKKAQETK
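Material: Human UCH37 enzyme supplied as purified proteasome complex | Schedule: 30 min preincubation with enzyme, 25 min cleavage at room temperature | Detection: AMC fluorescence 355/460 nm | Measure: % inhibition of Ub-AMC cleavage fluorescence | Controls: Wells without proteasome as full block, compound-free enzyme plus substrate as uninhibited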
Calb FLC – C. albicans growth modulation with fluconazole | C. albicans CaCi-2 (fluconazole-resistant clinical isolate) + fluconazole, Alamar Blue growth, 48 h | growth inhibition, % (test concentration not listed) | hit rate 0.57% among 300,000;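 active means most replicates above 75%; inconclusive means exactly half above 75%; inactive means most below 75%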;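 further: all wells also contain fluconazole at 8 µg/ml as a sub-toxic cotreatment; 0% = median of DMSO wells and 100% = median of geldanamycin control wells; wells of about 8 µL received 7.5 nL stock; the first replicate is given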
RanGTP-Imp inh – inhibitors of RanGTP-importin-beta interaction, primary screen, biochemical, FRET, CFP-Ran, YFP-importin-beta, homogeneous; AID 2216; inhibition, % (test concentration not listed); cell-free CFP-Ran/YFP-importin-beta FRET ratio; hit rate 1.1% among 300,000;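 active means most replicates above 15%; inconclusive means exactly half above 15%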;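 further: 0% = DMSO wells and 100% = Ran loaded with GDP instead of GTP; wells of about 40 µL received 100 nL stock; the first replicate is given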
Beta2AR agonist – activates human beta-2 adrenergic receptor causing internalization | P07550 | hit rate 0.43% among 340,000 | Am2.2-beta2AR cells, FAP receptor internalization, flow cytometry; reference of the scale not given here | AID 504454 | response, % (concentration not given with the values);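 active means response above a set limit, near 3 SD of response in nonfluorescent compounds, cut at about 42% in these data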;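 further: stock transfer was 100 nL into about 11 µL; a reference agonist was the positive control; negative values mostly stem from fluorescent compounds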
Target sequence (P07550 whole entry, looked up): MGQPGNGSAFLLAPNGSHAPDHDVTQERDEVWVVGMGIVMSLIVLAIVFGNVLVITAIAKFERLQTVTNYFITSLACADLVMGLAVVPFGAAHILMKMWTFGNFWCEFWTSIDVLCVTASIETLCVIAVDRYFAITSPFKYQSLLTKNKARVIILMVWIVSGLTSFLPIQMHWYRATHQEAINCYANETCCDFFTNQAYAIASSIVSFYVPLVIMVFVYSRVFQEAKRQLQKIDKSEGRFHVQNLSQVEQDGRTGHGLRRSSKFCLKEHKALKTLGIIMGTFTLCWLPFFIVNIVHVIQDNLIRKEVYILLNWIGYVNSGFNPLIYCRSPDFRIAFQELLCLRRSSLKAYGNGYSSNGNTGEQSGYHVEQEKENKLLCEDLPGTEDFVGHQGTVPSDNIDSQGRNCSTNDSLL
Bfl-1 A1 inh – inhibitors of the anti-apoptotic protein A1, read as caspase activation; hit rate 0.066% among 330,000; MEF A1-2A-BIM cells, Caspase-Glo 3/7 luminescence, 3 h; percent of clofoctol response, vehicle zero; caspase activation, % (no concentration beside the values);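 active means over half of replicate activation scores above 10%, or exactly half above 10 with the replicate mean above 10; inconclusive means replicate mean below 10 yet half the replicates above 10; inactive means over half of replicates below 10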;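 further: wells of about 30 µL received 50 nL stock; many hits fall short of the cut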
T cruzi repl – blocks replication of Trypanosoma cruzi | hit rate 1.4% among 300,000 | T. cruzi beta-gal in NIH3T3, luminescence, 90 h | AID 1885 | inhibition, % (no concentration beside the values);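 active means mean inhibition across valid replicates above about 55%, limit read from the data; inconclusive means mean below that limit but half or more replicates reach it; inactive means mean below it, under half of replicates reach it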;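 further: signal also drops with host cell toxicity which is not excluded here; 0% = plate median of DMSO wells and 100% = zero luminescence signal; higher percent means less beta-gal luminescence so fewer parasites; stock transfer was 50 nL into about 50 µL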
Beta apoptosis – blocks beta cell apoptosis; INS-1E cytokine-induced death, ATP luminescence, 48 h; percent of positive-control rescue, neutral wells zero; protection from apoptosis, % (no concentration beside the values); hit rate 0.8% among 300,000; AID 435005;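 active means all replicates at 75% or more, or half of them and the mean; inconclusive means half reach 75% but not the mean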;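 further: 0% = cytokine-treated negative control wells and 100% = positive control rescue; higher means more ATP so stronger rescue from cytokine killing; wells of about 40 µL received 100 nL stock; the first replicate is given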
LANA-H2B inh – blocks KSHV LANA binding to histone H2A/H2B | hit rate 0.6% among 320,000 | Q9QR71 | cell-free LANA-H2A/H2B peptide, fluorescence polarization | inhibition, % (no concentration beside the values); in the data active means inhibition mostly above about 10%, no sharp cut-off; inactive means mostly below about 6.7%;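 further: stock transfer was 7.5 nL into about 10 µL; 0% = median of vehicle wells and 100% = median of positive control wells; one replicate is shown; the record names a cut of 25% in any replicate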
An asterisk follows results filed as active; ? = inconclusive; . = not tested or not shown.

SMILES | UCH37 inh | Calb FLC | RanGTP-Imp inh | Beta2AR agonist | Bfl-1 A1 inh | T cruzi repl | Beta apoptosis | LANA-H2B inh
COc1ccc(OC)c(S(=O)(=O)N(C)CC(=O)Nc2ccccc2OC)c1 | 1.2 | -1 | 1.3 | 7 | 0.3 | -5 | -1 | 1.9
C/C(=N/OCO/N=C(\C)c1ccc(F)cc1F)c1ccc(F)cc1F | . | -3 | 1.0 | 0 | 0.5 | 11 | -5 | 10
Cc1ccc(-c2ccccc2[C@@H]2C[C@H]3CN(C)C(=O)[C@]34CCCN24)o1 | 2.8 | 7 | 1.0 | -4 | -0.6 | 5 | 2 | -2.3
CC1CCC2(CC1)NC(=O)N(CC(=O)NCc1ccc(Cl)cc1)C2=O (stereo not given) | 2.2 | . | . | 3 | 0.2 | . | -1 | 2.0
NS(=O)(=O)c1ccc(NC(=S)NC2CCCCC2)cc1 | 1.3 | 11 | 4.1 | -4 | 1.3 | . | 2 | 0.4
O=C(CSc1nnc(CNC(=O)c2c(F)cccc2Cl)o1)NC1CCCCC1 | 1.3 | -1 | 0.9 | -1 | -0.4 | 8 | -1 | 0.4
C=CCOc1ccc(CNn2nnnc2N)cc1 | 2.4 | -2 | -1.8 | -3 | 0.6 | 3 | -8 | -0.1
O=C(c1cc2ccccc2oc1=O)N(Cc1cccs1)Cc1ccccc1Cl | 2.2 | 5 | -2.6 | -2 | -0.4 | -10 | 0 | 2.5
CC[C@H](C)[C@H](NC(N)=O)C(=O)NCCc1ccc(OC)cc1 | 3.0 | -24 | -2.0 | 1 | 0.3 | -5 | -8 | 1.6
COc1ccccc1NC(=S)NNC(=O)c1cc(C)n(C)n1 | 0.5 | -5 | -0.8 | 5 | 1.9 | -6 | 0 | 0.5
OCCN1CCN(CC(O)COCc2ccc3c(c2)OCO3)CC1 (stereo not given) | 1.9 | 0 | 4.2 | 1 | 1.0 | -7 | 2 | -2.5
O=C(c1ccccc1)C1CCN(C(=O)c2c(F)cccc2F)CC1 | 4.5 | 19 | 2.5 | -7 | 0.6 | -6 | . | 0.6
CCOC(=O)c1c(CS(=O)(=O)c2ccccc2)n(C)c2cc(Br)c(O)cc12 | 3.4 | 14 | -3.1 | 6 | -0.3 | -2 | 0 | -1.5
CC1(C)Cc2c(c(-c3ccco3)[nH]c(=O)c2C#N)CS1 | -14 | 19 | 12 | 4 | -0.5 | -4 | 2 | 8.2
O=C(CSc1nnc(-c2ccccc2)o1)N1CCOCC1 | 3.9 | 3 | -0.4 | -1 | -0.7 | 2 | -2 | -0.5
CC1(C)O[C@@H]2[C@H](O1)[C@@H](CO)O[C@H]2n1ccc(=O)[nH]c1=O | 1.1 | . | . | -2 | 0.1 | . | -9 | -0.4
COc1ccc(OC)c(NC(=O)C(CCS(C)(=O)=O)NC(C)=O)c1 (stereo not given) | 3.7 | 7 | 2.4 | 0 | -0.6 | -24 | -1 | -2.3
CC(C)(C)C(=O)NC(=S)NNC(=O)C(c1ccccc1)c1ccccc1 | 0.5 | 82* | -3.0 | 2 | 0.3 | 40 | 68 | -3.8
O=C(NCCCO)c1c(O)c2cccc3c2n(c1=O)CCC3 | -16 | 26 | 5.5 | -1 | -0.1 | 4 | 1 | -1.2
Cc1cnc(C(=O)OCC(=O)c2ccc(C3CCCCC3)cc2)cn1 | -1.6 | -3 | 0.5 | -2 | -0.2 | 1 | 0 | 4.3
Cc1nn(C)c(C)c1/C=C(/C(=O)C(C)(C)C)n1cncn1 | 2.0 | 30 | 3.2 | -6 | 0.8 | -32 | -22 | 3.9
O=C(CSc1nc(O)cc(=O)n1-c1ccccc1)Nc1nc2ccccc2s1 | 5.7 | -7 | -3.0 | -4 | -0.8 | -7 | -5 | 3.5
CN(C(=O)c1cc(COc2ccc(F)c(F)c2)on1)C1CCOC1 (stereo not given) | 1.5 | -2 | 0.7 | -2 | . | 2 | . | .
O=C(CCCN1C(=O)C(c2ccccc2)Oc2cccnc21)NCCc1ccc(Cl)cc1 (stereo not given) | -0.5 | 2 | -0.3 | -2 | 0.3 | 15 | -4 | 6.2
CCOC(=O)N1CCN(S(=O)(=O)c2ccc(F)c(C(=O)Nc3cccc(C)c3C)c2)CC1 | 0.6 | 7 | -3.3 | 2 | 1.5 | 11 | -12 | 0.1
Cc1ccc(-n2nc(C)c(C(=O)N3CCN(C(=O)c4ccco4)CC3)c2-n2cccc2)cc1 | 2.1 | 27 | -0.3 | -6 | 1.1 | 5 | -2 | -7.7
COC(=O)c1ccc(NC(=O)c2cc(-c3ccccn3)nc3ccccc23)cc1 | -9.8 | -12 | -0.2 | -1 | -0.7 | -9 | -5 | 0.6
O=C(Cn1cc(C(=O)C(F)(F)F)c2ccccc21)Nc1ccccc1F | 2.1 | 0 | -1.6 | 7 | -0.3 | -7 | . | -3.8
Cn1c(=O)[nH]c(=O)c2c1nc(SCC(O)CO)n2Cc1ccccc1Cl (stereo not given) | 2.2 | 6 | 1.8 | 18 | 0.3 | -4 | . | -0.2
COc1ccc(C(=O)N/N=C/c2ccccc2OC(=O)c2ccccc2)cc1 | . | -2 | 0.5 | 10 | -2.7 | 36 | 102* | -9.8
CCNS(=O)(=O)c1cccc(C(=O)c2c(C)cc3ccccn23)c1 | 8.2 | -1 | -3.0 | 3 | 1.7 | 8 | . | -1.2
O=C(NCCN1CCOCC1)c1ccc2c(c1)N(Cc1ccc(F)cc1)C(=O)c1ccccc1S2(=O)=O | 0.7 | 1 | 2.0 | -4 | . | -3 | . | .
CON(C)C(=O)CC1(CN(Cc2ccccc2)C(=O)OC(C)(C)C)CCCCC1 | 3.2 | . | . | 2 | 0.6 | . | 0 | -2.8
CCn1c(SCC(=O)Nc2ccc(C)cc2)nc2sc3c(c2c1=O)CCN(C)C3 | -414 | -4 | -1.7 | -2 | 0.7 | 49 | -9 | 0.6
CN(CC(=O)Nc1cccc(F)c1)C(=O)CCCc1cccs1 | 3.3 | -2 | 5.4 | -6 | 0.0 | -22 | -6 | 2.5
CCn1nc(C(=O)N2CCN(Cc3ccc4c(c3)OCO4)CC2)c2ccccc2c1=O | 3.6 | -4 | -5.5 | -5 | 0.3 | -10 | -1 | -0.5
COc1cc(/C=C(\C#N)C(=O)Nc2ccc3c(c2)OCCO3)ccc1O | . | 25 | 8.8 | -1 | -1.4 | 1 | 2 | -1.8
CC1CN(CC(=O)NCc2ccc(Cl)cc2)CC(C)O1 (stereo not given) | 3.0 | -9 | -3.4 | 5 | 1.6 | -7 | 4 | 0.1
c1ccc(-c2nn3cnnc3c3ccccc23)cc1 | -0.5 | 3 | 1.7 | -11 | 0.8 | -6 | 5 | 2.2
Cc1ccc(Nc2nc(N)nc(CN3CCc4ccccc4C3)n2)cc1 | -0.4 | ? | -3.0 | 0 | 0.2 | -13 | . | -0.5
COc1ccc(CCNC(=O)CSC2=NS(=O)(=O)c3cc(Cl)ccc3N2)cc1OC | 1.1 | -1 | -2.2 | -6 | -0.8 | 4 | -9 | .
CCCNC(=S)Nc1ccc(Nc2ccccc2)cc1 | 1.7 | 1 | -5.4 | -13 | 0.5 | -13 | -12 | 0.0
CCc1ccc(NC(=S)Nc2cc(C(=O)O)ccc2N2CC3CC(C2)c2cccc(=O)n2C3)cc1 (stereo not given) | 1.2 | -11 | -2.5 | 3 | 0.0 | -16 | 4 | -3.6
CCNC(=S)N(CCN(CC)CC)Cc1cc2cc3c(cc2[nH]c1=O)OCO3 | -131 | 2 | -7.2 | 1 | 0.5 | 9 | -3 | 1.0
CCOC(=O)c1c(C)[nH]c(C)c1C(=O)COC(=O)c1ccc(OC)c(OC)c1 | 4.0 | -9 | 1.5 | -4 | -0.8 | 20 | -7 | -9.1

The closing two records of the part above open the next one.
SMILES | UCH37 inh | Calb FLC | RanGTP-Imp inh | Beta2AR agonist | Bfl-1 A1 inh | T cruzi repl | Beta apoptosis | LANA-H2B inh
CCNC(=S)N(CCN(CC)CC)Cc1cc2cc3c(cc2[nH]c1=O)OCO3 | -131 | 2 | -7.2 | 1 | 0.5 | 9 | -3 | 1.0
CCOC(=O)c1c(C)[nH]c(C)c1C(=O)COC(=O)c1ccc(OC)c(OC)c1 | 4.0 | -9 | 1.5 | -4 | -0.8 | 20 | -7 | -9.1
COc1ccc(Cl)cc1S(=O)(=O)Nc1ccc(Cl)cn1 | -1.3 | 4 | -3.8 | -7 | 0.8 | 10 | -7 | -4.1
CN(C(=O)COC(=O)c1ccc(Br)c(S(=O)(=O)N2CCOCC2)c1)C1CCCCC1 | 0.2 | . | . | 2 | -0.3 | . | 2 | 0.4
C[n+]1cn(CC(O)COCc2ccccc2)c2ccccc21 (stereo not given) | -0.2 | 19 | ? | 0 | 0.7 | -14 | -1 | 0.2
Cc1nc(=O)c(-c2ccccc2)c(C)n1-c1cccc(/C=C/C(=O)O)c1 | 1.1 | -1 | 3.8 | -1 | 0.4 | 13 | -2 | -0.3
NS(=O)(=O)c1cccc(NC(=O)CSc2nnc(-c3ccncc3)n2C2CC2)c1 | 0.3 | . | . | 2 | 0.6 | . | -3 | -1.0
CCCCN(CCCC)C(=O)CSc1nnc(-c2cc(OC)c(OC)c(OC)c2)o1 | 0.3 | -1 | 4.8 | 7 | -1.5 | 17 | 7 | -6.3
O=C(CCC(=O)Nc1ccc(Br)cc1)N/N=C/c1ccccc1F | . | -35 | -1.5 | 19 | 0.0 | -10 | -1 | 0.5
N#Cc1c(N)nc(SCC(=O)NCCc2ccccc2)c(C#N)c1-c1cccs1 | -138 | -1 | 1.0 | -10 | 0.2 | 10 | -3 | -0.7
Cc1ccc(N2C(=O)Nc3ccccc3C2(O)C(=O)N2CCN(c3ccccn3)CC2)cc1C (stereo not given) | 4.4 | 1 | 0.6 | -10 | 0.1 | -3 | -2 | -0.5
CSc1nc(C)cc(SCC(=O)Nc2ccccc2)n1 | 0.5 | -16 | 5.0 | -11 | 0.3 | -3 | -6 | 7.3
COCCNC(=O)Cn1nc(-c2ccccc2)c2ccccc2c1=O | . | 2 | -2.9 | -6 | 1.2 | -17 | -2 | 4.5
CSCCC(NC(=O)COc1ccccc1)C(=O)N(C)Cc1cccc(F)c1 (stereo not given) | -2.9 | . | . | -3 | 0.3 | . | -4 | -16
COC(=O)CCC(=O)OC1(C)C(=O)C=C2C=C(c3ccsc3)OC=C2C1=O (stereo not given) | 0.5 | -1 | -8.4 | 23 | 0.6 | 14 | -4 | 1.9
COc1cccc2c(O)c(-c3ccccc3)c(=O)[nH]c12 | 4.7 | -8 | 3.3 | -3 | 0.4 | -5 | 5 | 3.8
N#Cc1ccc(COC(=O)c2cccnc2Cl)cc1 | 1.0 | -8 | -3.5 | -3 | -0.3 | -12 | -2 | 5.8
Cn1c(SCC(=O)N/N=C/c2ccncc2)nc2ccccc21 | . | -7 | -0.8 | -9 | 0.4 | -39 | 3 | -2.8
O=C(NCc1cccs1)C1CC(c2ccccc2O)=NO1 (stereo not given) | 5.4 | 11 | 1.6 | 3 | -0.4 | 0 | -3 | 0.3
O=C(O)c1cccc(NC(=S)NC(NC(=O)c2ccco2)C(Cl)(Cl)Cl)c1 (stereo not given) | -0.3 | -2 | 4.1 | -9 | -0.2 | -21 | -5 | -4.6

Bioassay records deposited in PubChem by several laboratories.
